# Screens from PubChem.
# Menin MLL FP FL = menin-MLL binding inhibition, fluorescein peptide; 290,000 tested, under 10 active; AID 1766; Fluorescence polarization, fluorescein-MLL peptide displacement from menin; FP activity change, % at 61.4 µM; inconclusive = falling polarisation curve, or a change in total fluorescence; inactive = total fluorescence flat and polarisation flat or rising; no compound was filed as active; the % refers to the polarisation; negative = inhibition;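 further: % of control where 0% means no effect; inhibitors lower the polarisation; unlabelled MLL peptide was the positive control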
# gsp antagonist = antagonists of gsp mutant (McCune-Albright syndrome) | gsp-mutant cells, cAMP HTRF, 30 min; control for the full effect not named in the record | Potency, µM (doses to about 76.9 µM), for inactives: top-dose activity change, negative = inhibition, actives largely listed as inhibitors | hit rate 0.4% among 340,000 | AID 624288; active = falling curve of any shape with a large fitted effect; inconclusive = falling curve, mostly with a smaller effect; inactive = flat or rising curve; cell line not stated here;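 further: intracellular cAMP measured with PDE inhibitor Ro 20-1724 present during compound exposure; potency means the concentration at half of the fitted maximal effect; on the % scale 0 is the no-effect control and ±100 the full control effect; nearly all actives have a fitted effect of over 65% in size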
#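 G418-selected cells were plated in DMEM/10% FBS for 16-24 h at 37C, then treated with compounds plus the PDE inhibitor […] (300 uM solution added) for 30 min at 37C. Intracellular cAMP was measured by HTRF after 30 min lysis at room temperature.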
# gsp agonist = activates gsp, the McCune-Albright syndrome mutation; gsp mutant cells, cAMP HTRF, 30 min; control for the full effect not named in the record; Potency, µM (highest dose often 76.9 µM), for inactives: at the top dose activation (cAMP increase), actives largely listed as activators; hit rate 0.13% among 340,000; active = well fitted activation curve with a large enough effect; inconclusive = small, poorly fitted or top-dose-only effect, or another doubt; inactive = no such curve, though single readings can be large or run the other way; cell line not stated here;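 further: phosphodiesterase inhibitor Ro 20-1724 added with compounds to block cAMP breakdown; potency means the concentration at half of the fitted maximal effect; nearly all actives have a fitted effect of over 60% in size; about a fifth of the inactives were tested at one dose only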
#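 Cells stably selected in G418 were plated at 2000/well, grown 16-24 hr, then given compounds in DMSO with the PDE inhibitor […] (300 uM solution added) for 30 min at 37C; cAMP was read by HTRF.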
# ClpP mod = qHTS Assay for Activators of ClpP | ATP-dependent Clp protease proteolytic subunit (Bacillus subtilis (strain 168)), P80244 | hit rate 1.9% among 340,000 | purified B. subtilis ClpP, FRET peptide cleavage, 20 min | Potency, µM (highest dose often 57.5 µM), inactives show at the top dose activity change, negative = active; active = well fitted falling curve with a large enough effect; inconclusive = small, poorly fitted or top-dose-only effect; inactive = no such curve, though single readings can be large or run the other way; further: potency means the concentration at half of the fitted maximal effect; the source files actives as falling curves though it sought activators and does not explain the sign; nearly all actives have a fitted effect of over 65% in size; many hits overshoot -100%
# Target sequence (P80244 whole entry, looked up): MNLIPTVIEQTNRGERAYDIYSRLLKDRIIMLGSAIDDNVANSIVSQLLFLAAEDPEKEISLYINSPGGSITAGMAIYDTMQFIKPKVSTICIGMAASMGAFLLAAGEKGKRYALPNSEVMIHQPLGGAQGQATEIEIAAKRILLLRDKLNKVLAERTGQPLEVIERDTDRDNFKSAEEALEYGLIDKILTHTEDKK
#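 ClpP 10 microg/mL final, pH 8 Tris/KCl buffer with BSA, glycerol, Tween-20; compound pinned in; FRET-FV substrate; RT 20 min; Ex320/Em430; ΔFRET vs ADEP 5.8 microM, DMSO, no enzyme.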
# Sfp PPTase inh = Sfp phosphopantetheinyl transferase inhibition; hit rate 3.5% among 310,000; Potency, µM, without a hit: max response, negative = inhibition, hits mostly inhibitors; Biochemical Sfp PPTase activity, qHTS; active means well fitted inhibition curve with a large enough effect; inconclusive means small, poorly fitted or top-dose-only effect, or another doubt; inactive means no such curve, though single readings can be large or run the other way;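 further: the enzyme is Sfp with the accession as filed and its product quenches rhodamine fluorescence; potency means the concentration at half of the fitted maximal effect; 0% = enzyme reaction without inhibitor and -100% = no enzyme wells; top concentration of the series not given in the record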
#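 With Hepes-Na pH 7.6 buffer containing 10 mM MgCl2, Sfp (15 nM) modified BHQ-2-YbbR (12.5 uM) using rhodamine-CoA (5 uM). Two reads 30 minutes apart at 525/598 nm yielded each well's rate.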
# TRPV1 PAM = human TRPV1 potentiation | AID 540277 | TRPV1-expressing cells, Fluo-8 calcium influx, capsaicin EC20 potentiation; host cell line not named in the record; control for the full effect not named in the record | potentiation, % at 8.33 µM | hit rate 0.02% among 320,000 | Q8NER1; active means potentiation above 80%; inconclusive means 30% to 80%; inactive means below 30%; further: 0% is about no effect
#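 Cells expressing TRPV1 were dye-loaded with Fluo-8 and read kinetically: 10 s baseline, 3 min after compound (agonist portion), then 2 min after EC20 capsaicin (allosteric enhancer portion). Calcium-bound dye fluorescence at 480/520 nm.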
# TRPML1 blocker = inhibitors of human TRPML1 channel; activity change, negative = inhibition, % (concentration not given with the values); Q9GZU1; hit rate 0.02% among 390,000; TRPML1-inducible cells, Ca2+ dye fluorescence, FDSS; active compounds read low; inhibition of EC80 agonist-evoked calcium signal; in the data active means activity change below about -50%; inconclusive means about -30% to -50%; inactive means above about -30%;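 further: stimulus is agonist 54-4 at its EC80 concentration; on the % scale 0 is the no-effect control and ±100 the full control effect; the text of the record puts the active cut at -80%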
# Target sequence (Q9GZU1 whole entry, looked up): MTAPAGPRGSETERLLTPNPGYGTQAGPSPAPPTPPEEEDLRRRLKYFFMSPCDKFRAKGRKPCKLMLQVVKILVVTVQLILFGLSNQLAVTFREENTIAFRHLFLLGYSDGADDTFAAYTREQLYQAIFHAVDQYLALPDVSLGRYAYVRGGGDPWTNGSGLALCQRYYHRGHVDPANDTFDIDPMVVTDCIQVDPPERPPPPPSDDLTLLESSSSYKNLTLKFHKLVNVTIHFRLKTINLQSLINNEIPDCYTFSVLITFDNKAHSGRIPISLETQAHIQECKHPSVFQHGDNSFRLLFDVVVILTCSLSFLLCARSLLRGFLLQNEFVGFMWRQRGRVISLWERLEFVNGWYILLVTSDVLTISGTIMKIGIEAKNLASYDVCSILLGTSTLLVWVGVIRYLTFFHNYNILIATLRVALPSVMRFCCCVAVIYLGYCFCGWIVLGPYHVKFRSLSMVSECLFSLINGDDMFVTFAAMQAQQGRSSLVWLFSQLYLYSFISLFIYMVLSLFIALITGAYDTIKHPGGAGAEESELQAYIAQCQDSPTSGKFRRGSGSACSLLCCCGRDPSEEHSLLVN
#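 TRPML1-DL cells, Tet-induced overnight (~16 h, 37 °C) at 1,500 cells/well, were loaded with Ca8 no-wash dye plus quencher for 45-90 min at room temperature. Compounds were pinned during FDSS kinetic reading; agonist 54-4 at EC80 (4 uM final) then added.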
# An asterisk follows results filed as active; ? = inconclusive; . = no result given; & = joins results of further samples; [ ] = dose if it differs, or a comment.
# The opening two compounds (preview)
SMILES | Menin MLL FP FL | gsp antagonist | gsp agonist | ClpP mod | Sfp PPTase inh | TRPV1 PAM | TRPML1 blocker
CCOc1ccccc1C(=O)NCC(=O)OCC(=O)N1C(C)CCCC1C (centres undefined) | -1.7 | 2.6% | ? | -3.1% | 9.1% | -7.6 | -8.9
CCN1CCN=C1Nc1ccccc1 | . | 12.4% | . | -0.1% | . | -24.4 | -0.8

# Results, from the first entry:
SMILES | Menin MLL FP FL | gsp antagonist | gsp agonist | ClpP mod | Sfp PPTase inh | TRPV1 PAM | TRPML1 blocker
CCOc1ccccc1C(=O)NCC(=O)OCC(=O)N1C(C)CCCC1C (centres undefined) | -1.7 | 2.6% | ? | -3.1% | 9.1% | -7.6 | -8.9
CCN1CCN=C1Nc1ccccc1 | . | 12.4% | . | -0.1% | . | -24.4 | -0.8
CC(C)NC(=O)CSc1nnc2sc3ccccc3n12 | -1.3 | 4.7% | 12.1% | 0.2% | 16.2% | -6.5 | -11.7
CC1CN(C(=O)Nc2ccc(F)cc2)C2(CCCCCC2)O1 (centres undefined) | -4.4 | 2.8% | -16.3% | 0.0% | 1.0% | -7.2 | -9.1
COc1ccc(C2C(C(=O)NCCN3CCOCC3)c3ccccc3C(=O)N2C2CCCCC2)cc1 (centres undefined) | 0.5 | 0.0% | 2.9% | 1.1% | 6.9% | -3.6 | -3.5
CC(C)[C@H](N)c1cn([C@@H](CO)C(=O)N2CCNCC2)nn1 | . | 13.2% | . | -2.1% | . | -21.5 | -16.0
Cc1cc(NC(=O)COC(=O)c2cc(S(=O)(=O)N3CCOCC3)ccc2N2CCCCC2)no1 | 0.3 | -3.4% | -3.2% | -3.1% | 16.6% | 0.5 | -10.1
Cc1ccc(-c2cc(C(=O)NCc3cccnc3)no2)cc1 | 3.8 | 0.0% | 4.5% | -0.6% | 8.6% | -12.0 | 13.1
COCCN(CC1CCCN(C2Cc3ccccc3C2)C1)C(=O)CCC(F)(F)F (centres undefined) | -4.8 | 9.9% | -17.8% | -0.9% | 37.7%[activator] | ? | 25.6
CCOc1ccc(-c2c(C(=O)N/N=C(\C)c3cccnc3)nnn2-c2nonc2N)cc1 | 0.0 | 5.0% | 33.8% | -3.3% | -7.2% | 5.7 | -10.0
CN(CC(=O)Nc1ccccc1Cl)C(=O)CSc1nnc(-c2ccco2)n1C | . | 13.6% | -1.5% | -0.1% | . | 6.6 | 19.2
Cc1nnc(SCc2ccc(Cl)cc2Cl)[nH]c1=O | -1.1 | -20.1% | -8.7% | 0.4% | 3.4% | -2.0 | 15.4
COc1ccc(CC(=O)Nc2cc(S(=O)(=O)N3CCOCC3)ccc2N2CCCC2)cc1OC | . | -3.0% | -28.3% | . | . | . | 2.4
O=C(O)C1=CC[C@@H](c2ccc(Cl)cc2)N(S(=O)(=O)c2ccc(Cl)cc2)[C@H]1c1ccccc1 | . | -16.1% | -15.8% | 3.0% | . | -18.6 | -4.7
Cn1nnnc1SCC(=O)N1CCc2ccccc2C1 | -1.2 | 9.9% | -29.9% | 1.1% | 21.9% | -18.5 | 4.3
O=C(Nc1ncc([N+](=O)[O-])s1)c1cccs1 | 16.4&21.3&12.3 | ? | -19.3% | 2.7%&1.0% | 11.4%&3.3%&17.5% | 10.2&-2.7 | 0.6&14.2
O=C(N1CCCCC1)C12CC3CC(CC(C3)C1)C2 | -0.6 | -6.5% | 15.3% | 1.7% | -10.9% | -10.7 | 14.9
COc1ccc(NC(C)=O)cc1NC(=O)CSc1nnc(-c2ccncc2)n1C | -1.4 | 10.9% | 24.8% | 1.2% | 4.1% | -8.1 | 6.2
COc1ccc(OC2CCN(S(=O)(=O)c3ccc(OC)cc3)CC2)cc1 | 1.8 | -20.3% | -36.4% | -2.5%&-1.3% | 0.6% | 2.2 | -6.1&-27.5
O=C(Nc1ccc2[nH]c(=O)[nH]c2c1)c1c(F)c(F)c(F)c(F)c1F | -0.8 | 1.8% | -5.8% | . | 3.6% | 14.1 | -1.2
O=C(Nc1ccc(F)c(Cl)c1)C1CCN(S(=O)(=O)c2cccnc2)CC1 | 1.2 | -6.0% | -19.8% | -0.7% | 3.3% | -3.3 | 3.5
Cc1cccc(N2CC(C(=O)Nc3ccc4c(c3)OCCO4)CC2=O)c1C (centres undefined) | -4.9 | -5.5% | -8.4%[15.4 µM] | . | -2.6% | 1.3 | -15.7
CCOc1cc(-c2noc(-c3ccncc3)n2)cc(Br)c1OC | 5.1 | 14.7% | 5.6% | 1.2% | 4.8% | 4.2 | -3.5
O=c1c2ccccc2sn1-c1nccs1 | -3.2 | -22.7% | -3.6%[15.4 µM] | . | 2.24µM* | -22.8 | 3.1
O=c1c2ccccc2cnn1Cc1n[nH]c(=S)n1-c1ccc(Cl)cc1 | -1.4 | 16.8% | ? | -1.4% | 12.6% | 7.1 | 2.8
COc1ccc(/C=C2\SC(=S)N(CCCC(=O)Nc3cc(C)on3)C2=O)cc1OC | ? | -25.2% | 9.0%[15.4 µM] | -10.3% | -16.8% | 21.4 | -27.1
CCOC(=O)NC(=O)C(=CNNc1ncc(C(F)(F)F)cc1Cl)C(=O)NC(=O)OCC | 6.7 | -0.2% | -31.4%[inhibitor] | . | -1.8% | -7.9 | -0.2
COc1ccccc1C(=O)OCCNC(=O)Cn1cnc2c1c(=O)n(C)c(=O)n2C | -1.4 | -7.5% | ? | . | 16.7% | 2.3 | -19.1
COc1ccccc1NC(=S)N(Cc1ccccn1)Cc1ccccc1Cl | -3.4 | 8.0% | -8.3%[15.4 µM] | . | 22.2% | 1.6 | -3.8
CCc1nnc(NS(=O)(=O)c2ccc(N/C=C\C(=O)c3cccc4ccccc34)cc2)s1 | 11.3 | -30.9% | -5.2% | -2.5% | -5.7% | -5.6 | 9.7
CC(C)OC(=O)c1ccc(NCc2cc(O)ccc2O)cc1Cl | . | -14.4% | 14.3% | 2.8% | . | . | -8.7
CC1(C)COCN1S(=O)(=O)c1ccc(C(=O)Nc2nnc(-c3ccc(Cl)s3)o2)cc1 | -0.7 | 31.6µM* | -1.2% | -3.3% | 21.8% | 1.1 | 5.1
CC(Oc1ccc2ccc(=O)oc2c1)C(=O)N1CCOCC1 (centres undefined) | . | 8.0% | -6.8%[15.4 µM] | . | . | 4.6 | 25.3
CCC(=O)NC(c1ccccc1OC)c1ccc2cccnc2c1O (centres undefined) | 0.4 | -8.6% | -67.2%[inhibitor] | -2.9% | 19.3% | 4.4 | 8.6
O=S(=O)(NC1CCCCC1NCc1ccco1)c1ccccc1 (centres undefined) | -1.3 | 6.2% | -12.4% | -1.1% | 4.0% | -6.6 | 20.5
CC(C)[C@H](NS(=O)(=O)c1ccccc1)C(=O)OCc1cc([N+](=O)[O-])cc2c1OCOC2 | . | -28.9% | 3.7%[15.4 µM] | -5.7% | . | . | -0.4
CCC(=O)Nc1ccc(-c2ccc(NC(=O)CC)c(OC)c2)cc1OC | -3.6 | -16.1% | -0.7% | -1.8% | 21.4% | -4.6 | -18.2
CCn1cc(Br)c(C(=O)Nc2ccc(OC)cc2)n1 | 5.4 | -11.6% | -9.7% | 0.3% | -0.9% | -30.9 | 18.3
O=c1c2ccccc2nc(-c2ccccc2)n1Cc1ccccc1 | . | -11.4% | 9.6%[15.4 µM] | -0.3% | 21.8% | 11.8 | 20.2
C#CCOCCOCCOCCNc1nc(N2CCN(C(=O)[C@H](CCC(=O)O)n3cc(CN)nn3)CC2)nc(N2CCN(C(=O)[C@H](CCCCN)n3cc([C@@H](N)CC(N)=O)nn3)CC2)n1 | . | 12.1% | . | -1.5% | . | . | 2.4

# Other records:
# Each structure is followed by: Menin MLL FP FL	gsp antagonist	gsp agonist	ClpP mod	Sfp PPTase inh	TRPV1 PAM	TRPML1 blocker
- Cc1oc(-c2ccccc2)nc1C(=O)O
  -2.9	-3.0%	-5.6%[15.4 µM]	.	-17.8%	-19.0	11.5
- COc1cc(/C=C/C(=O)OCC(=O)N2CCN(S(=O)(=O)c3ccc(C)cc3C)CC2)ccc1O
  7.9	-15.1%	-13.6%	-13.2%	-2.6%	-1.8	-12.6
- O=C(c1ccncc1)N1CCCC(N2CCN(c3ccc(F)cc3)CC2)C1 (centres undefined)
  .	15.1%	-3.9%[15.4 µM]	-0.3%	14.3%	-6.4	-0.3
- CCOC(=O)C1CCN(Cc2cc(=O)n3c(-c4ccccc4)csc3n2)CC1
  -0.9	.	-3.1%[15.4 µM]	.	8.7%	-2.8	-1.3
- O=C1NC(=O)C2(CCCCC2)N1
  .	0.5%	13.4%[15.4 µM]	-1.1%	.	.	-17.7
- COCCCNC(=O)CN(C1CCCCC1)S(=O)(=O)c1ccc(C)cc1
  5.6	-5.7%	8.2%	1.3%	15.1%	10.1	1.6
- CCC(C)N(C(=O)CSc1nnc(COc2ccccc2F)n1N)C1CCS(=O)(=O)C1 (centres undefined)
  .	2.5%	-31.6%[inhibitor]	2.5%	.	3.7	-1.3
- OC1CCCN(c2ncnc3c2nnn3Cc2c(F)cccc2Cl)C1 (centres undefined)
  4.3	0.4%	-6.4%	0.3%	0.8%	8.1	10.6
- Cc1cc(OCC(=O)OCC(=O)NC2CCCC2)ccc1Cl
  .	2.2%	6.5%	-2.0%	.	5.3	-13.6
- COc1cccc(C(=O)Nc2ccc(-c3nnc(-c4ccco4)o3)cc2)c1
  5.4	?	22.9%	12.9%	-21.3%	.	1.5
- O=C(COc1cccc2c1CCN(Cc1ccccc1F)C2=O)N1CCOCC1
  0.5	.	.	.	11.9%	-15.3	.
- CC(=O)Nc1cccc(C(=O)OCC(=O)N(c2ccccc2)C2CCS(=O)(=O)C2)c1 (centres undefined)
  .	12.0%	-17.5%[15.4 µM]	.	.	0.5	-11.9

# Quoted from the listing.
# In TRPML1 blocker, COCCCNC(=O)CN(C1CCCCC1)S(=O)(=O)c1ccc(C)cc1 shows 1.6
# In gsp agonist, Cc1oc(-c2ccccc2)nc1C(=O)O shows -5.6%[15.4 µM]
# In Sfp PPTase inh, COc1cccc(C(=O)Nc2ccc(-c3nnc(-c4ccco4)o3)cc2)c1 shows -21.3%
